Compound activity deposited in PubChem BioAssay by National Center for Advancing Translational Sciences (NCATS).
HPGD inh – HPGD (human) dehydrogenase inhibition. purified HPGD, NADH fluorescence kinetic, PGE2 substrate. Potency, µM, for inactives: top-dose activity change, negative = inhibition, usual class: inhibitors. hit rate 4.3% among 150,000; active = well fitted inhibition curve with a large enough effect (not every such curve was filed as active); inconclusive = small, poorly fitted or top-dose-only effect, or another doubt; inactive = no such curve, though single readings can be large or run the other way;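 note: top concentration of the series not given in the record; plate controls included wells without enzyme; inactives centre near -10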
Target sequence (P15428 whole entry, looked up): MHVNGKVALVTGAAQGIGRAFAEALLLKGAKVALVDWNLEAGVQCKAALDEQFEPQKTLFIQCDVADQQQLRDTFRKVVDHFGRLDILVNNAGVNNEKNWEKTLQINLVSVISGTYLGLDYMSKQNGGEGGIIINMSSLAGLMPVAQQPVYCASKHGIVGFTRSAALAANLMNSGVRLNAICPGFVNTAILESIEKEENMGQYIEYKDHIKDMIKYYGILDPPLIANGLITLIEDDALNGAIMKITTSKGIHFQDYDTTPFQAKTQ
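20 nM HPGD preincubated 15 min at room temperature with compound in 50 mM Tris-HCl pH 8, 0.01% Tween 20. Started with 1 mM NAD+ and 30 uM prostaglandin E2; NADH fluorescence (360/450 nm) read 5 times over 30-s intervals, last minus first.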
* marks the source's active call; other numbers are inactive results; ? = inconclusive; [ ] = another dose, or the depositor's remark. % is set by controls: 0 for no effect and ±100 for the full control effect; potency is the fitted concentration of half-maximal effect. Not all compounds are listed. The share of hits here may be higher or lower than overall.

SMILES	HPGD inh
COc1ccc(-c2nnn(CC(=O)c3ccc4c(c3)OCCO4)n2)cc1OC	-6%
COc1ccc(-c2cc(=O)oc3cc(OCC(=O)c4cccc([N+](=O)[O-])c4)ccc23)cc1	2.8µM*
O=C(N/N=C/c1cn(-c2ccccc2)nc1-c1cc2ccccc2o1)c1ccccc1Br	?
COc1ccc(/C=N/n2c(C)nnc2C)c(OC)c1OC	-25%
CCN1CCN(C(=O)CN(c2cc(OC)ccc2OC)S(C)(=O)=O)CC1	-15%
COc1ccc(Cl)cc1C(=O)NNC1CC(=O)N(Cc2ccc(Cl)cc2)C1=O (stereo not given)	-7%
COc1cccc(/C=N/n2c(-c3n[nH]c4c3CCC4)n[nH]c2=S)c1O	?
Clc1ccc(CO/N=C/c2c(-c3ccccc3)nc3n2CCS3)c(Cl)c1	?
CCO/N=C(/c1nonc1N)N1CCN(c2ccc([N+](=O)[O-])cc2)CC1	-14%
Cn1c(=O)c2c(ncn2Cc2ccc(Cl)c(Cl)c2)n(C)c1=O	-7%
CCc1ccc(OCC(=O)NNC(=O)Cc2cccs2)cc1	-1%
O=C(O)c1cccc(NC(=O)c2cn(-c3ccccc3)nc2-c2cc3ccccc3o2)c1	-4%
COc1ccc(/C=C/C(=O)NC(=S)NNC(=O)c2cccnc2)cc1	-18%
CCC12CN3CC(CC)(CN(C1)C3c1c(O)ccc3ccccc13)C2=O (stereo not given)	-13%
COCCN1Cc2cccc(C(=O)Nc3c(C)cccc3C)c2C1=O	-9%

3 consecutive compounds already listed, quoted:
SMILES	HPGD inh
COc1ccc(-c2nnn(CC(=O)c3ccc4c(c3)OCCO4)n2)cc1OC	-6%
COc1ccc(-c2cc(=O)oc3cc(OCC(=O)c4cccc([N+](=O)[O-])c4)ccc23)cc1	2.8µM*
O=C(N/N=C/c1cn(-c2ccccc2)nc1-c1cc2ccccc2o1)c1ccccc1Br	?

3 of the compounds above, in markdown.
| canonical_smiles | HPGD inh |
| --- | --- |
| CCO/N=C(/c1nonc1N)N1CCN(c2ccc([N+](=O)[O-])cc2)CC1 | -14% |
| Cn1c(=O)c2c(ncn2Cc2ccc(Cl)c(Cl)c2)n(C)c1=O | -7% |
| CCc1ccc(OCC(=O)NNC(=O)Cc2cccs2)cc1 | -1% |

More results follow:
SMILES	HPGD inh
C=C1c2cc(C)ccc2NC(=O)N1c1ccccc1	-25%
Cc1ccc(NC(=O)CCC(=O)NNC(=O)c2ccco2)cc1C	-1%
Cc1cc(C)cc(-n2c(C)c3c(C)nnc(C)c3c2C)c1	-15%
COC(=O)NNS(=O)(=O)c1ccc(C)cc1	-5%
O=C(O)c1ccc2noc(-c3ccccc3)c2c1	-12%
O=S(=O)(NCc1ccco1)N1CCOCC1	6%
Cc1cc(C(=O)Nc2c(F)cc(F)cc2Br)no1	-11%
S=c1nc(-c2ccccc2)n(CCCn2ccnc2)c2c1CCCC2	-19%
Cc1ccc(Cl)cc1N1CCN(c2cccc[n+]2C)CC1	1%
O=S(=O)(NC(=NC1CCCC1)C(F)(F)F)c1ccccc1	-6%
CCOP(=O)(OCC)C(Nc1cccc(C(F)(F)F)c1)c1ccc(Br)cc1 (stereo not given)	-12%
Cc1ccc(CSc2ncnc3c2cnn3-c2ccccc2)cc1	-29%
Cc1ccc(C)c(NC(=O)CSc2ccc(-c3cccs3)nn2)c1	-18%
COc1ccccc1NC(=O)CSc1nnc(Cn2cnc3ccccc32)n1C	0%
COc1ccc(OC)c(C2C(C(N)=O)=C(C)Nc3nc(CCCO)nn32)c1 (stereo not given)	1%

The last two entries of the part above come first, to join the parts:
SMILES	HPGD inh
COc1ccccc1NC(=O)CSc1nnc(Cn2cnc3ccccc32)n1C	0%
COc1ccc(OC)c(C2C(C(N)=O)=C(C)Nc3nc(CCCO)nn32)c1 (stereo not given)	1%
COc1ncc2nc(C)c(=O)n(C[C@H]3CCCO3)c2n1	-9%
O=C(CN1CCC(n2nnc3cc(F)ccc32)CC1)N1CCc2ccccc2C1	-6%
CC1Cc2nc(SCC(=O)Nc3nc4ccccc4s3)n(C)c(=O)c2S1 (stereo not given)	-7%
O=C(N/N=C/c1ccc(O)cc1O)/C(=C/c1ccccc1)CCO	-4%
O=C1OCc2cccc3cccc1c23	?
CCOc1cc(C)c(S(=O)(=O)N2CCCC2)cc1C	-11%
N#Cc1nc(-c2ccco2)oc1NCc1ccc(F)cc1	?
O=c1/c(=C/c2cn(-c3ccccc3)nc2-c2ccc(F)cc2)sc2nc3ccccc3n12	-7%
CCOC(=O)N1CCC(Nc2c(-c3ccc(C)c(C)c3)c(=O)c2=O)CC1	-8%
CCOc1ccc(N=C(NC#N)SCC(=O)NC2CC2)cc1	2%
CC(=O)c1cccc(N=Nc2c(C)[nH]c3ccccc23)c1	-25%
COCCn1c(SC(C)C(=O)Nc2ncc(Cl)cc2Cl)nc2ccccc21 (stereo not given)	-3%
CC(C)Oc1ccc(C(=O)NC(C)(C)CO)cc1	-9%
CCn1c(=O)c2ccccc2n2c(SCC(=O)NCc3cccs3)nnc12	-11%
CCCN1CCN(CCCNC(=O)Cn2cc3c(n2)CCCC3)CC1	-5%
CC(C)C(c1nnnn1C1CCCC1)N1CCc2ccccc21 (stereo not given)	-11%
Cc1[nH]c2ccccc2c1[C@H]1[C@@H](CC#N)C1(C)C	-26%
N#Cc1cc2c(nc1SCC(=O)N1CCCCC1)CCCCC2	25µM*
CCCCC(=O)NC(=S)Nc1ccccc1N1CCCCC1	-8%
COc1cccc(C(=O)NC2CCN(C(=O)N3c4ccccc4Sc4ccccc43)CC2)c1	-17%
Cc1ccc(Oc2c(C(N)=O)cc([N+](=O)[O-])cc2[N+](=O)[O-])cc1	-18%
COc1ccc(S(=O)(=O)N2Cc3ccccc3CC2C(=O)Nc2nccs2)cc1OC (stereo not given)	4%
Cc1cc(C)c2c(N)c(C(=O)N3CCN(c4ncccn4)CC3)sc2n1	?
COc1ccc(CCCc2nnc(SCC(=O)Nc3nc(C)cs3)n2C)cc1	-3%
COc1ccc(C2=C(O)C(C)N(c3ccccc3)C2=N)cc1OC (stereo not given)	-3%
COc1ccc(N(CCCN2C(=O)c3cccc4cccc(c34)C2=O)C(=O)c2cccc(OC)c2)cc1	-11%
Cc1cc(C)nc(NS(=O)(=O)c2ccc(Br)s2)c1	?
O=C(O)[C@@H]1[C@@H](C(=O)Nc2ncccn2)[C@@H]2C=C[C@@H]1O2	-8%
O=c1c2[nH]c3ccccc3c2ncn1CCN1CCNCC1	-8%
Cn1nnnc1SCC(=O)N1c2ccccc2Sc2ccccc21	-10%
Cc1ccc(NS(=O)(=O)c2cc(C(=O)NCCSC3CCCCC3)ccc2C)cc1	-9%
COc1ccc(C)cc1-n1nnnc1SCC1CCCCO1 (stereo not given)	-21%
CC(C)OC(=O)c1cc(NC(=O)C2C3CCC(O3)C2C(=O)O)cc(C(=O)OC(C)C)c1 (stereo not given)	-13%
Cc1ccc(NS(=O)(=O)c2cn(C)cn2)cc1	-8%
CCNc1nc(NCC)nc(C(=O)NN)n1	-12%
O=C1C2C3C=CC(C3)C2C(=O)N1/N=C/c1ccc(-c2ccccc2[N+](=O)[O-])o1 (stereo not given)	-22%
CC(C)C(NS(=O)(=O)c1ccc2c(c1)OCCCO2)C(=O)O (stereo not given)	-8%
O=C1CCCCCN1C(=O)c1cccc(C(=O)N2CCCCCC2=O)c1	-12%
COc1ccccc1NC(=O)NC1(C(=O)N2CCCCCC2)CCCCC1	-4%
O=C(O)CCC(=O)OCC1CCCO1 (stereo not given)	-5%
COc1ccc(/C=C/C(=O)Nc2nc(C)cc(C)n2)cc1OC	?
CC(C)n1nc(C(=O)Nc2nc3ccc(S(C)(=O)=O)cc3s2)c2ccccc2c1=O	-16%
CCCCC(=O)Nc1ccc(N2CCN(C(=O)CC)CC2)cc1	-17%
Cc1ccc(N2CCN(c3cc(C)nc4nc(C)nn34)CC2)c(C)c1	-6%
CCCCCCCCCCNC(=O)C(=O)Nc1ccccn1	-9%
COc1ccc(-c2nnc(N(C)C(=O)C3CCCO3)s2)cc1 (stereo not given)	-11%
CS(=O)(=O)N(CC(=O)N1CCOCC1)c1ccc2c(c1)OCO2	-1%
O=S(=O)(/C=C/c1ccccc1)NCCc1ccccn1	-9%
CCOC(=O)/C(C#N)=C1/C=C(C)NC(c2ccccc2O)=N1	-13%
Cc1ccc(Cn2ncc3c(N4CCN(c5ccc(C)cc5)CC4)ncnc32)cc1	-22%
CC(C)(C)NC(=O)CSc1nnc(-c2ccccn2)n1-c1ccccc1	-22%
COc1cccc(CN(C)CC(=O)NC(=O)NCc2ccccc2)c1	-5%
CC(C)[C@H](NC(=O)c1ccccc1)C(=O)OCC(=O)N1CCc2ccccc2C1	-5%
Cc1cc(N/N=C/c2ccccc2)nc(NCc2ccccc2)n1	11%
Cc1ccc(NC(=O)Cc2nc(CCl)cs2)cc1	-7%
COc1cc(SC)ccc1C(=O)N(C)Cc1ccccc1	?
CNC(=O)c1[nH]cnc1C(=O)Nc1cccc(OC)c1	-13%
CSc1nc(Cl)cc(N(CCO)CCO)n1	-4%
Cc1ccc(-c2ccc(/C=N/NC(=O)CN3CCCC3)o2)cc1Cl	?
Cc1ccc(C(=O)Nc2ccon2)cc1S(=O)(=O)N1CCCC1	-28%

The list goes on.
SMILES	HPGD inh
COc1ccccc1N1CCN(CC(=O)N2N=CCC2c2ccccc2)CC1 (stereo not given)	-6%
c1cc(Nc2ncnc3sccc23)cc(-c2nnc3n2CCCCC3)c1	22µM*
Oc1ccc(/C=N/NC(=S)Nc2cccnc2)cc1O	-30%
CCOC(=O)c1ccc2c(c1)nc(SCC(=O)c1ccco1)n2CC	-29%
Cc1cc(C)n2nc(SCN3C(=O)c4ccccc4C3=O)nc2n1	22µM*
O=C(c1ccc(Cl)cc1)c1oc2ccccc2c1CS(=O)(=O)c1ccccc1	-16%
CN(C)c1oc(-c2ccccc2Cl)nc1S(=O)(=O)c1ccccc1	-24%
COc1ccc(NCc2ccc3c(c2)OCO3)cc1Cl	-8%
CCOC(=O)CSc1nc2cc(C)ccc2cc1C#N	-6%
CCOc1ccccc1N1CC(O)=C(c2nc3ccccc3s2)C1=N	?
CC(=O)Nc1ccc(S(=O)(=O)n2cnc3ccccc32)cc1	2%
Cc1nn(CCC(=O)O)c2nc(-c3cccnc3)cc(C(F)(F)F)c12	?
CCOC(=O)c1ccc(S(=O)(=O)NCC(c2ccc(N(C)C)cc2)c2c[nH]c3ccccc23)cc1 (stereo not given)	-16%
COc1ccc2[nH]cc(C(=O)CN3CCN(C4CCCCC4)CC3)c2c1	-10%
CC1=CC(C)C(/C=N/n2cnnc2)C(C)C1 (stereo not given)	-8%

3 compounds from above, sorted by length of the SMILES, highest first:
SMILES	HPGD inh
O=C(c1ccc(Cl)cc1)c1oc2ccccc2c1CS(=O)(=O)c1ccccc1	-16%
COc1ccc(C2=C(O)C(C)N(c3ccccc3)C2=N)cc1OC (stereo not given)	-3%
CCOc1cc(C)c(S(=O)(=O)N2CCCC2)cc1C	-11%

The listing continues.
SMILES	HPGD inh
COC(=O)c1ccc(C)c(N(CCO)CCO)c1	-7%
COc1ccc(S(=O)(=O)NNC(=O)c2csc(-n3nc(C)cc3C(F)(F)F)n2)cc1OC	-22%
CCn1c(SCC(=O)Nc2sc3c(c2C#N)CCCC3)nnc1-c1ccncc1	-9%
CN1C(=O)/C(=N/OC(=O)c2ccccc2)c2ccccc21	14µM*
Cc1ccc(C)c(S(=O)(=O)NCc2ccc(C(=O)N3CCN(C)CC3)cc2)c1	-21%
O=C(CSc1nnc(Cc2ccccc2)n1Cc1ccccc1)NCc1ccco1	-15%
O=C(Nc1cccnc1)c1ccc(COCC(F)(F)F)cc1	-10%
COc1ccc(S(=O)(=O)Nc2ccc(O)c3ccccc23)cc1	?
Cc1ccc2c(c1)c(C)c(C)n2CC(O)Cn1nc(C)cc1C (stereo not given)	-13%
Cc1cc(C)cc(NC(=O)/C(C#N)=C/c2cn(CC(=O)NCc3ccco3)c3ccccc23)c1	167%[activator]
O=C(Nc1cc(N2CCOCC2)ncn1)NC1(C(F)(F)F)Oc2ccc(Cl)cc2O1 (stereo not given)	-1%
O=C(CSc1cccs1)Nc1ccc2ccccc2c1	28µM*
O=C(CCCOc1ccccc1)N1CCN(c2ccccc2)CC1	-9%
CC(=O)NCC(=O)OCC(=O)c1ccccc1	-5%
Cc1nc(NNC(=O)c2ccccc2)cc(-c2ccccc2)n1	-10%
CC1(C)S[C@@H]2[C@H](NC(=O)[C@H](N)c3ccccc3)C(=O)N2[C@H]1C(=O)O	?
COCCn1c(SCC(=O)Nc2cccc(C(=O)OC)c2)nc2ccccc2c1=O	-9%
Cc1coc2c1c(C)cc1oc(=O)c(Cc3ccccc3)c(C)c12	?
CC(O)c1ccc(-n2cnnn2)cc1 (stereo not given)	-7%
Cc1ccc(-n2nc(C(=O)N3CCOCC3)cc2-c2ccc(Cl)cc2)cc1	-2%
CN(C)c1ccnc2sc(C(=O)c3ccccc3)c(N)c12	-18%
c1ccc2nc(-c3ccc(N4CCOCC4)cc3)ccc2c1	-7%
CCSC1=C(C#N)C2(CCCCC2)C(C#N)=C(N)N1	-3%
COc1ccc2nc(NC3=NC(C(=O)Nc4ccc(C)cc4)CC(=O)N3)nc(C)c2c1 (stereo not given)	-27%
O=C(c1csnn1)N1CCC2(CCCN(c3ccccc3)C2)CC1	-8%
CN1CCN(C(=O)CCC(=O)c2ccc(F)cc2)CC1	-17%
COc1cc(C(=O)N2CCN(C(=O)C(Cc3cc(C)ccc3C)NC(C)=O)CC2)cc(OC)c1OC (stereo not given)	-8%
O=C(CCc1nc2ccccc2[nH]c1=O)OCC(=O)c1cccc2ccccc12	-18%
Cn1nc([N+](=O)[O-])c2c(-c3nc4ccccc4s3)c(N)n(C3CCCCC3)c2c1=O	-14%
CC(C)=C1C2CCC1C1C(=O)N(c3ccc4c(c3)OCO4)C(=O)C21 (stereo not given)	-4%
COC(=O)CNC(=O)c1ccc(C)s1	-13%
CCOC(=O)/C=C1\NC(C)(C)Cc2cc(OC)c(OC)cc21	-5%
